Assay outcomes (PubChem)
Cruzain inh noDet – inhibitors of Trypanosoma cruzi cruzain without detergent. hit rate 2.3% among 200,000. P25779. purified cruzain, Z-FR-AMC fluorescence, no detergent. AID 1476. Potency, µM, for the others: max response, negative = inhibition, usual class: inhibitors; active = well fitted curve in the direction sought with a large enough effect; inconclusive = small, poorly fitted or top-dose-only effect, or another doubt; inactive = no such curve, though single readings can be large; an effect the other way counts as inactive or inconclusive;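 note: plate controls were enzyme without inhibitor for no effect and buffer without enzyme for full effect; nearly all actives have a fitted effect of over 40% in size; top concentration of the series not given in the record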
Target sequence (P25779 123-467 limits assumed): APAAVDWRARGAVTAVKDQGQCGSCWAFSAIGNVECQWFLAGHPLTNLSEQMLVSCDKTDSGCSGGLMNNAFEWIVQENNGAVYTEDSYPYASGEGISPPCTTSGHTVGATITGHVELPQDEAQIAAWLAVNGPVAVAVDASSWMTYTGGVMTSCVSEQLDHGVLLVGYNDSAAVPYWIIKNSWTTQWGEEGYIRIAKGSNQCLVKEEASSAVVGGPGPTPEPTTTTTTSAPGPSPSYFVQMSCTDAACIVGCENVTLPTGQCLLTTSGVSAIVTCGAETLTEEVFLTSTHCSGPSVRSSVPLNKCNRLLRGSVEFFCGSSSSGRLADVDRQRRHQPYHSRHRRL
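Detergent-free condition (0.00005% Triton X-100) in acetate buffer pH 5.5 with DTT. 1.5 nM enzyme and compound were pre-mixed 15 min, then 2 uM Z-FR-AMC substrate added; reaction progress from fluorescence change between first and third reads (60 s).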
SARS PLP yeast – inhibitors of SARS-CoV papain-like protease in yeast; S. cerevisiae expressing SARS-CoV PLpro, growth rescue; control for the full effect not named in the record; Potency, µM (highest dose often 32.9 µM), inactives show at the highest dose activity, positive = growth rescue; hit rate 0.19% among 330,000; AID 485353; note: 0% is about no effect; nearly all actives have a fitted effect of over 55% in size; growth read by luminescence after 48 h
NS1 inh – inhibitors of influenza NS1 protein function; hit rate 0.4% among 270,000; S. cerevisiae slowed by influenza A NS1, growth recovery by OD600; AID 2326; Potency, µM (highest dose often 46.1 µM), inactives show top-dose activity, positive = more growth; note: actives are rising curves; nearly all actives have a fitted effect of over 50% in size
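Growth recovery, yeast-based: influenza A NS1 expressed in S. cerevisiae causes slow growth, and suppressors are detected by OD600. The parent strain without NS1 is used as positive control.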
StopGo reporter – lowers the luciferase signal of an FMDV 2A StopGo reporter. human cells with a luciferase reporter of 2A StopGo recoding; control for the full effect not named in the record. Potency, µM (top dose mostly 57.9 µM), inactives show at the top dose signal change, negative = less light. hit rate 1.2% among 410,000; active = well fitted falling curve with a large enough effect; inconclusive = small, poorly fitted or top-dose-only effect; inactive = no such curve, though single readings can be large or run the other way; tested in HEK293T cells; note: % is set by controls: 0 for no effect and ±100 for the full control effect; nearly all actives have a fitted effect of over 45% in size; luciferase light after 4 h
Marburg entry inh – Marburg virus entry inhibition; Marburg virus pseudotyped entry inhibition, cell reporter; control for the full effect not named in the record; about a third of the inactives were read at about 46 µM; Potency, µM (highest dose often 37.8 µM), without a hit: at the top dose activity change, negative = inhibition, usual class: inhibitors; hit rate 1.8% among 300,000; AID 540276; active = well fitted inhibition curve with a large enough effect; inconclusive = small, poorly fitted or top-dose-only effect, or effect the other way; inactive = flat fitted curve, though single readings scatter; tested in HEK293 cells; about a fifth of its hits are not listed in these tables; note: % is set by controls: 0 for no effect and ±100 for the full control effect; luciferase read-out
Cruzain Triton – cruzain (T. cruzi) inhibition with detergent | P25779 | purified cruzain, Z-FR-AMC fluorescence, 0.01% Triton | Potency, µM, without a hit: max response, negative = inhibition, hits mostly inhibitors | hit rate 0.43% among 200,000 | AID 1478; active = well fitted curve in the direction sought with a large enough effect; inconclusive = small, poorly fitted or top-dose-only effect, or another doubt; inactive = no such curve, though single readings can be large; an effect the other way counts as inactive or inconclusive;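 note: plate controls were neutral wells for no effect and buffer without enzyme for full effect; nearly all actives have a fitted effect of over 40% in size; top concentration of the series not given in the record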
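In this qHTS format, compounds are incubated with 1.5 nM cruzain for 15 min at room temperature before 2 uM Z-FR-AMC is added. Release of AMC is followed at 360/450 nm, and progress is taken as the 60 s fluorescence difference.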
RE007 growth inh – less growth of the S. pombe RE007 Vpr strain; hit rate 0.21% among 360,000; S. pombe RE007 Vpr strain, BacTiter-Glo ATP luminescence, 24 h; control for the full effect not named in the record; Potency, µM (titrated, usually from 92.2 µM), for inactives: top-dose activity change, negative = less growth; active = well fitted falling curve with a large enough effect; inconclusive = small, poorly fitted or top-dose-only effect; inactive = no such curve, though single readings can be large or run the other way;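 note: % is set by controls: 0 for no effect and ±100 for the full control effect; nearly all actives have a fitted effect of over 50% in size; the assay follows cell death caused by Vpr and the record does not say whether a fall means rescue or toxicity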
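Fission yeast strain RE007, carrying one chromosomally integrated HIV-1 vpr copy, was seeded at OD 0.01 in PMG+AL medium with 23 nL pinned compound. After 24 h at 30 °C and 99% humidity, viability was read by BacTiter-Glo luminescence.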
LASV entry inh – inhibitors of Lassa virus binding or cell entry; Lassa virus pseudotype entry inhibition, cell reporter; control for the full effect not named in the record; Potency, µM (series often up to 37.9 µM), for inactives: at the highest dose activity change, negative = inhibition, actives largely listed as inhibitors; hit rate 1.2% among 300,000; AID 540256; active means well fitted inhibition curve with a large enough effect; inconclusive means small, poorly fitted or top-dose-only effect, or effect the other way; inactive means flat fitted curve, though single readings scatter; tested in HEK293 cells; note: % is set by controls: 0 for no effect and ±100 for the full control effect; nearly all actives have a fitted effect of over 50% in size; luciferase read-out
Active calls of the source: *; ? = inconclusive; . = not tested or not shown; & = joins results of further samples; [ ] = another dose, or the depositor's remark. Unless noted, calls come from the whole dose curve; as a rule, active means well fitted rising curve with a large enough effect; inconclusive means small, poorly fitted or top-dose-only effect; inactive means no such curve, though single readings can be large or run the other way. Potency is the fitted concentration of half-maximal effect. Rows were taken by chance; overall some 4.6% were active at least once.

Values run as follows: Cruzain inh noDet	SARS PLP yeast	NS1 inh	StopGo reporter	Marburg entry inh	Cruzain Triton	RE007 growth inh	LASV entry inh
- CN(Cc1ccccc1F)C(=O)CN1c2cccc3cccc(c23)S1(=O)=O
    .	-13%	.	-25%	2%	.	-7%	-9%
- CCc1ccc(O)c(N=Cc2ccccc2O)c1
    1%	-5%	-9%	33%[activator]	15%	1.3%	-16%	-5%
- O=C(c1ccccc1)c1nn(-c2cccc(Cl)c2)c2nc(-c3ccccc3)cc(=O)n12
    25µM*	-13%	?	-5%	0%	4.5%	-14%	-6%
- Fc1ccccc1C1CCN(Cc2nc(CC3CC3)no2)C1 (stereo not given)
    .	0%	-5%	50%[activator]	?	.	-16%	13%[46.1 µM]
- Cc1ccc(-n2nc3c(=O)n(CC(=O)NCc4ccccc4)nc(C)c3c2C)cc1
    .	-3%	-2%	0%	.	.	-2%	.
- COc1ccc2nc(/N=C/c3c(O)n(-c4cccc(Cl)c4)c(=O)[nH]c3=O)sc2c1
    -15%	-9%	4%	-26%	12%	0.6%	13%	3%
- Cc1ccc(NC(=O)c2ccc(Cl)cc2[N+](=O)[O-])nc1
    .	0%	5%	10%	?	.	6%	?
- Cc1nc(N2CCOCC2)c2oc3ccccc3c2n1
    3%	10%	-9%	0%	-18%	-1.7%	0%	19%
- O=C(NCCCc1nc2ccccc2[nH]1)c1cccs1
    .	1%	.	-16%	24%[46.1 µM]	.	0%	1%[46.1 µM]
- O=C1/C(=N\S(=O)(=O)c2cccs2)C([n+]2ccccc2)=C([O-])c2ccccc21
    .	-1%	3%	25µM*	.	.	-1%	.
- O=c1cc(CSc2nnnn2-c2ccccc2)nc(Nc2ccc(F)cc2)[nH]1
    -6%	1%	1%	?	9%	-0.5%	3%	-2%
- CN1CCN(C(=O)C2C3C=CC(C3)C2C(=O)O)CC1 (stereo not given)
    7%	5%	-7%	-11%	-5%	1.0%	-1%	-8%
- COc1ccccc1CCNc1ncnc2c1nnn2C
    3%	.	.	-19%	.	0.5%	.	11%[46.1 µM]
- CSc1ccccc1OCc1cc(C(=O)N2CCN3CCCC3C2)no1 (stereo not given)
    .	1%	-1%	30%	.	.	-17%	.
- CN1CCc2nc(SCC(=O)Nc3ccc(Cl)cc3)c(C#N)cc2C1
    .	.	.	-7%	?	.	6%	19%
- Cc1ccc(Cn2ccc(NC(=O)c3cc(-c4ccc(F)cc4)on3)n2)cc1
    20µM*	7%	11%	-9%	?	7.6%	7%	-2%
- O=C(CN1CCN(c2ccccc2)CC1)Nc1ccc(Oc2ccccc2)cc1
    10%	-20%	-50%	-26%	-3%	-4.3%	-4%	?
- CCNc1nc(Oc2ccc(=O)n(-c3ccccc3)n2)nc(N2CCOCC2)n1
    -3%	8%	-4%	?	13%	1.4%	10%	-20%
- O=c1[nH]c(N2CCN(Cc3ccc4c(c3)OCO4)CC2)nc2c1CCCC2
    .	1%	.	-7%	8%	.	-17%	-1%[46.1 µM]
- O=C(NC(Cc1c[nH]c2ccccc12)C(=O)Nc1ccc(OC(F)(F)F)cc1)c1cccs1 (stereo not given)
    10%	-4%	-5%	?	2.6µM*	-9.0%	0%	2.1µM*
- O=c1ccc(-c2ccccc2)nn1Cc1c(F)cccc1Cl
    -13%	.	.	-19%	-6%[46.1 µM]	-7.3%	.	?
- Oc1ccc(C(=S)N2CCN(Cc3ccccc3)CC2)cc1
    .	0%	-5%	-5%	.	.	-12%	.
- O=c1[nH]c2ccc(N/C(=N/S(=O)(=O)c3ccccc3)c3ccccc3)cc2[nH]1
    2%	14%	9%	18%	-1%	2.6%	-10%	?
- CCOc1nc(Nc2ccc(F)cc2)nc(N2CCN(c3ccc(OC)cc3)CC2)n1
    -13%	1%	8%	?	-4%	-9.6%	29%	-29%
- COc1ccc(CCNC(=O)c2ccc(Cl)nc2)cc1
    .	-3%	9%	-3%	23%[46.1 µM]	.	-11%	.
- Nc1cccc(N2C(=O)c3cccc4c(N)ccc(c34)C2=O)c1
    .	0%	5%	-13%	.	.	-17%	.
- COc1ccc(OC)c(C2=C[N+](=O)C(C)(C)C(C)(C)N2[O-])c1
    -7%	-5%	13%	-19%	7%	-3.2%	-1%	-2%
- COc1ccc(-c2cc3ccc(O)cc3oc2=O)cc1
    .	-2%	-15%	16%	.	.	-15%	.
- CC12CN3CC(C)(CN(C1)C3c1ccc3ccccc3c1O)C2=O (stereo not given)
    -5%	-7%	3%	-24%	-21%	-1.6%	-11%	1%
- CCCSc1nc2sc3c(c2c(=O)[nH]1)CCN(Cc1ccccc1)C3
    ?	.	4%	-6%	?	-8.5%	-1%	19%
- Cn1cnnc1SCC(=O)NNC(=O)c1ccc(Cl)cc1
    3%	17%	13%	-13%	-33%	2.3%	1%	8%
- COc1ccc(C)cc1NC(=O)NNC(=O)C1CCC(C(C)(C)C)CC1 (stereo not given)
    .	1%	6%	-11%	.	.	-11%	.
- COc1ccc(NC2CCCN(C(=O)c3ccc(C)c(N4CCNC4=O)c3)C2)cc1 (stereo not given)
    .	1%	6%	-24%	3%	.	?	-8%
- COc1ccc(/C=N/NC(=O)C(=O)NCC2CCCO2)cc1 (stereo not given)
    6%	-23%	1%	-4%	-6%	-3.0%	-10%	4%
- O=C(CSC1c2ccccc2-c2ccccc21)N/N=C/c1ccccc1C(=O)O
    .	0%	3%	4%	-1%[46.1 µM]	.	-2%	-6%
- Cc1cc(NC(=O)c2cccc(S(=O)(=O)N3CCC(C)CC3)c2)no1
    .	-4%	-5%	-7%	-14%	.	0%	-13%
- CCCCNC(=O)CSc1nc(O)c(Cc2ccc(OC)cc2)c(=O)[nH]1
    .	1%	3%	-16%	-5%[46.1 µM]	.	40%	-15%
- Cc1ccc(-c2nnn(CC(=O)N(Cc3ccccc3)C(C(=O)NC3CCCC3)c3ccncc3)n2)o1 (stereo not given)
    ?	-5%	-18%	-26%	-9%	-5.2%	-1%	-16%
- Oc1ccc(NCc2cccs2)cc1
    .	-8%	-1%	27%	?	.	-15%	?
- NC(=O)COC(=O)CCCSc1nc2ccccc2s1
    .	-1%	5%	7%	-20%	.	1%	?
- CN(Cc1ccco1)C(=O)c1c[nH]c2ccc(S(=O)(=O)Nc3ccc4c(c3)OCCO4)cc2c1=O
    -3%	7%	8%	-25%	-8%&11%	-1.6%	10%	?
- C=CCc1cccc(Cl)c1OCCCNC1CCCC1
    .	-2%	-10%	-21%	.	.	0%	.
- CCOC(=O)Cc1csc(NC(=O)Cn2c(=O)oc3ccccc32)n1
    .	2%	1%	-15%	-28%[46.1 µM]	.	-10%	-29%
- COc1ccc(OC(C)C(=O)NCc2nc(-c3ccc(Cl)cc3)no2)cc1 (stereo not given)
    18%	.	.	?	-2%[46.1 µM]	-7.9%	.	?
- Cc1ccc(NC(=O)COC(=O)c2ccc3c(c2)OCO3)cc1S(=O)(=O)N1CCCCC1
    ?	-2%	10µM*	0%	-12%	-1.8%	1%	-4%
- O=C(O)Cc1ccc(NC(=O)C(c2ccccc2)c2ccccc2)cc1
    .	1%	-1%	-13%	?	.	-8%	-27%
- O=C(c1cccc(C(F)(F)F)c1)C1CCCN(Cc2ncc[nH]2)C1 (stereo not given)
    .	0%	3%	-9%	?	.	-1%	3%[46.1 µM]
- COc1ccc(-c2n[nH]c(C)c2-c2cc(OC)ccc2O)cc1
    2%	-2%	4%	-26%	2%	-0.5%	0%	2%
- O=C(NC1(C(F)(F)F)NC(=O)N(c2ccccc2F)C1=O)c1ccncc1 (stereo not given)
    -3%	5%	-2%	-17%	22%	-6.2%	1%	-1%
- Cc1c(CN(C)Cc2cn(C)nc2-c2ccccc2F)[nH]c2ccccc12
    .	1%	0%	-27%	?	.	4%	-12%
- O=C1c2ccccc2C(=O)N1CCc1nn[nH]n1
    6%	4%	-7%	.	6%	9.4%	-6%	3%
- CCNC(=O)COC(=O)c1ccc(NS(=O)(=O)c2ccc3c(c2)OCCO3)cc1
    .	2%	.	5%	?	.	3%	2%
- c1ccc2c(CN3CCN(C4CCCCC4)CC3)c[nH]c2c1
    ?	-7%	15%	-16%	?	1.4%	-26%	-21%
- O=C(N/N=C1/CCS(=O)(=O)c2ccc(F)cc21)c1ccccn1
    .	1%	.	6%	-3%[46.1 µM]	.	10%	24%[46.1 µM]
- CN1C(C(=O)NCc2ccco2)=CC(c2ccc(F)cc2)=NS1(=O)=O
    .	10%	12%	-1%	.	.	-2%	.
- Cc1noc(C)c1S(=O)(=O)Nc1c(C)n(C)n(-c2ccccc2)c1=O
    0%	.	-2%	13%	1%	3.5%	1%	30%
- CC(c1ccccc1)N1CNc2c(c(=O)n(C)c(=O)n2C)C1 (stereo not given)
    5%	6%	15%	-17%	-2%	5.8%	2%	?
- C=CCn1c(=O)c2ccccc2n2c(SCc3cc(=O)n4ccsc4n3)nnc12
    -9%	0%	3%	-13%	-11%	8.7%	-3%	-1%
- CCOC(=O)c1cc(-c2ccccc2)n(-c2cccc(C(=O)Nc3cccc(F)c3)c2)c1C
    10µM*	.	.	-14%	.	-1.4%	.	-22%[46.1 µM]
- COc1ccc(-c2noc(-c3ccc(Br)o3)n2)cc1OC
    1%	1%	3%	19%	2%	-7.8%	-10%	?

(listing goes on)
Values run as follows: Cruzain inh noDet	SARS PLP yeast	NS1 inh	StopGo reporter	Marburg entry inh	Cruzain Triton	RE007 growth inh	LASV entry inh
- CN1C(=O)c2ccc(NC(=O)C3CC3)cc2C1=O
    .	-4%	6%	-10%	.	.	-9%	.
- COc1ccc(Cl)cc1NC(=O)NC(C)C
    .	0%	6%	-9%	.	.	11%	.
- CCOc1ccc(CCNC(=O)CSc2nc3ccccc3nc2Cc2ccc(C)cc2)cc1OCC
    17%	.	.	6%	-17%[46.1 µM]	8.1%	.	4%[46.1 µM]
- OC(COc1cccc2ccccc12)CN1CCN(c2ccccn2)CC1 (stereo not given)
    -3%	-5%	-11%	-16%	-2%	-0.8%	3%	?
